Source: PubChem (National Center for Advancing Translational Sciences (NCATS))
PINK1 modulator – changes PINK1 expression | 410,000 compounds, 0.2% hits | AID 624263 | PINK1 immunofluorescence, high-content cytometry, 24 h | Potency, µM (top dose mostly 76.6 µM), inactives show at the highest dose activation (PINK1 increase), usual class: activators; active = well fitted activation curve with a large enough effect; inconclusive = small, poorly fitted or top-dose-only effect; inactive = flat fitted curve, though single readings scatter; cell line not stated here;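 also: potency is read from the fitted curve at half-maximal effect; % of control where 0% means no effect; nearly all actives have a fitted effect of over 65% in size; a mitochondrial uncoupler was the plate control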
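PINK1 protein, normally rapidly degraded, was detected by immunofluorescence after 24 hour compound treatment of a stable cell line. Titration data (5 concentrations) came from laser-scanning cytometry, with CCCP-treated wells as controls.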
Sfp PPTase inh – Sfp phosphopantetheinyl transferase inhibition; Q9F4F7; Biochemical Sfp PPTase activity, qHTS; Potency, µM, for inactives: max response, negative = inhibition, most hits filed as inhibitors; 310,000 compounds, 3.5% hits; AID 1490; active = well fitted inhibition curve with a large enough effect; inconclusive = small, poorly fitted or top-dose-only effect, or another doubt; inactive = no such curve, though single readings can be large or run the other way;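 also: the enzyme is Sfp with the accession as filed and its product quenches rhodamine fluorescence; potency is read from the fitted curve at half-maximal effect; 0% = enzyme reaction without inhibitor and -100% = no enzyme wells; top concentration of the series not given in the record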
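Fluorescence-quenching assay with 15 nM Sfp, 5 uM rhodamine-CoA and 12.5 uM BHQ-2-labelled ybbR peptide in pH 7.6 Hepes/MgCl2 buffer. Enzyme was pre-incubated with compound for 15 min at room temperature. Rate was taken from the 30-min fluorescence change (525/598 nm).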
Six1-Eya2 inh – Six1/Eya2 interaction inhibition | AlphaScreen GST-Six1/His-Eya2 binding, biochemical; hits give low values; control for the full effect not named in the record | activity change, % (test concentration not listed) | Q15475+O00167 | 360,000 compounds, 0.56% hits; in the data active = activity change below about -65%; inconclusive = about -30% to -65%; inactive = above about -30%; also: % is scaled to controls: 0 for no effect and ±100 for the full control effect
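Compounds are tested against tagged Six1 and Eya2 proteins bridged by glutathione donor and nickel acceptor beads; after a one-hour incubation at 37 °C without light, AlphaScreen emission is recorded.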
D2 PAM – potentiates the human D2 dopamine receptor allosterically | DiscoveRx D2 beta-arrestin cells, luminescence, 90 min; 100% = 57 uM dopamine signal | potentiation, % (concentration not given with the values) | 360,000 compounds, 0.23% hits | P14416 | AID 624464; active = potentiation of 50% or more; inconclusive = 30% to 50%; inactive = 30% or less;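 also: tested on top of an EC20 dose of dopamine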
Target sequence (P14416 whole entry, looked up): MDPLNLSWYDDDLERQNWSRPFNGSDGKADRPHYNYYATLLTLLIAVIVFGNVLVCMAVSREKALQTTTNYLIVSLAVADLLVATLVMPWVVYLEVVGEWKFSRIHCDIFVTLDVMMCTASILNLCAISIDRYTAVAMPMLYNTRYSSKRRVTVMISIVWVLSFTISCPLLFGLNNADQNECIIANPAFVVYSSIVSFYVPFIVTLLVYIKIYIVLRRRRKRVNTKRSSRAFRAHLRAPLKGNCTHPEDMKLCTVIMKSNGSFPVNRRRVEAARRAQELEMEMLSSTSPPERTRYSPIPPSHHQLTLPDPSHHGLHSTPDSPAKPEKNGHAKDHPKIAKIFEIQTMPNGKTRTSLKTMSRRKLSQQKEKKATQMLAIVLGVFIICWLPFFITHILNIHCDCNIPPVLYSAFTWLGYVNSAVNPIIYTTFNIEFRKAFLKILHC
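PathHunter D2 cells, attached overnight at 37 deg C, received compound in DMSO plus dopamine at EC20 (50 nM final) for 90 min at 37 deg C. Beta-arrestin recruitment was read as luminescence after 1 h with detection reagent at ambient temperature.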
D2 ag – human D2 receptor agonism in beta-arrestin assay; activation, % (no concentration beside the values); P14416; AID 624465; DiscoveRx PathHunter D2 beta-arrestin, luminescence, 90 min; 100% = 57 uM dopamine signal; 360,000 compounds, 0.084% hits; in the data active = activation above about 40%; inconclusive = about 15% to 40%; inactive = below about 15%; also: compound concentration not given in the record; the text of the record calls up to 30% inactive
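DiscoveRx PathHunter D2 beta-arrestin cells (2,100/well) attached overnight, then compound-stimulated 90 min at 37 C in HBSS/10 mM HEPES/0.1% Tween-20 buffer; beta-galactosidase complementation read by luminescence after 1 h at ambient temperature. Dopamine 57 uM final (EC100) as control.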
TRPV1 PAM – potentiators of human vanilloid receptor 1 (TRPV1) | 320,000 compounds, 0.02% hits | AID 540277 | TRPV1-expressing cells, Fluo-8 calcium influx, capsaicin EC20 potentiation; host cell line not named in the record; control for the full effect not named in the record | potentiation, % at 8.33 µM; active means potentiation above 80%; inconclusive means 30% to 80%; inactive means below 30%; also: 0% is about no effect
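Cells expressing TRPV1 were dye-loaded with Fluo-8 and read kinetically: 10 s baseline, 3 min after compound (agonist portion), then 2 min after EC20 capsaicin (allosteric enhancer portion). Calcium-bound dye fluorescence at 480/520 nm.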
CtBP-E1A blk – CtBP/E1A binding inhibition; activity change, % (no concentration beside the values); 340,000 compounds, 0.49% hits; AlphaScreen GST-E1A/His-CtBP binding, 1536-well; hits give low values; control for the full effect not named in the record; AID 651724; in the data active means activity change below about -65%; inconclusive means about -30% to -65%; inactive means above about -30%; also: % is scaled to controls: 0 for no effect and ±100 for the full control effect
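Steps: dispense buffer (Tris pH 8.0, NaCl 300 mM, TCEP 1 mM, BSA, Tween 20); add 5X protein mix (GST-E1A, His-CtBP, 125 nM each); pin 23 nL compound; 2 h at 37 °C, dark; add 5X beads (50 ug/mL); 1 h; read.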
The depositor's hits bear a star; ? = inconclusive; / = not tested or not shown; & = joins results of further samples; [ ] = remark or other dose.

SMILES	PINK1 modulator	Sfp PPTase inh	Six1-Eya2 inh	D2 PAM	D2 ag	TRPV1 PAM	CtBP-E1A blk
COc1ccccc1CN(Cc1ccco1)S(=O)(=O)c1ccc(-n2cnnn2)c(OC)c1	3.0%[38.3 µM]	23%	-9	-8	2.1	13	8
Cc1cccc(OCC(=O)NCC(=O)N=Nc2c(O)[nH]c3ccc([N+](=O)[O-])cc23)c1	-1.7%	-16%	-14	2	-0.2	5	-8
CC(C)(C)Nc1nc(Nc2ccc([N+](=O)[O-])cc2)nc(NC(C)(C)C)n1	13%	12%	6	-7	-3.8	15	4
Cc1ccc(NC(=O)CCc2ccc(C)o2)c(Br)c1	4.9%	9%	-6	-3	4.9	24	2
CC(C)CN1CC(C(=O)O)CC1=O (stereo not given)	-0.7%	11%	16	-6	2.0	9	/
COC(=O)/C=C1/S/C(=N/NC(=O)c2ccccc2C)NC1=O	1.9%	-5%	3	-12	-3.6	11	3
COc1ccc(CCN2C(=O)CC(Nc3ccc(N4CCOCC4)cc3)C2=O)cc1OC (stereo not given)	-0.9%	-3%	-26	11	5.0	?	-5
O=C(CCN1C(=O)c2ccccc2S1(=O)=O)NCc1ccc(F)cc1	-0.5%	/	-4	-4	-3.6	3	21
c1ccc(Cn2nnc3c(NCC4CCCO4)nc(C4CC4)nc32)cc1 (stereo not given)	3.4%	6%	4	-7	9.7	-14	-1
O=C(c1cc2nc(-c3ccccc3)cc(C(F)(F)F)n2n1)N1CCOCC1	-0.1%[38.3 µM]	14%	3	-6	-2.1	9	7
Cc1ccc(SCCc2cc[n+](CC(=O)c3ccccc3)cc2)cc1	3.0%	-1%	1	-10	-6.4	-1	-1
O=C(Nc1ccc(Br)cc1)c1cccc(NC(=O)C2C3CC4OC(=O)C2C4C3)c1 (stereo not given)	-1.2%	8%	5	20	1.0	5	0
Cc1nnc(SCC(=O)N2c3ccccc3CC2C)[nH]c1=O (stereo not given)	0.2%	30%[activator]	-6	-7	0.0	17	-4
COC(=O)c1ccc(NC(=O)CN(C2CCCCC2)S(C)(=O)=O)cc1	2.6%	20%	-10	-10	-4.3	-6	-1
COc1ccc(C(CC(=O)O)n2cnnn2)cc1 (stereo not given)	-1.2%	4%	5	3	1.5	-1	-18
COc1cc(NC(=O)CC[C@H]2O[C@@H](n3cnc4c(NC(=O)c5ccccc5)ncnc43)[C@H](O)[C@@H]2O)cc(OC)c1OC	0.9%	/	-12	-4	-5.6	/	-9
C/C=C(\C)C(=O)OC1c2c(ccc3ccc(=O)oc23)OC(C)(C)C1OC(C)=O (stereo not given)	-0.1%&0.8%	5%&6%	-1	3	1.0	-12	2
CCCn1c(=O)c(C(=O)c2ccccc2)nc2ccccc21	-0.3%	13%	-1	-8	1.1	-7	-15
CC1(c2nnc(Cc3ccccc3)o2)CC(c2ccc(OC(F)(F)F)cc2)=NO1 (stereo not given)	4.1%	/	12	-9	-1.1	-11	/
COc1ccc(N(CC(=O)Nc2ccccc2C(=O)N2CCCC2)S(C)(=O)=O)cc1	1.0%	8%	9	-6	0.6	-11	3
Cc1ccc(-n2nc(N)c3c(=O)oc(N(C)C)nc32)cc1	0.9%	4%	0	-3	-1.7	-19	0
Cc1nc(SCCO)c2oc3ccccc3c2n1	-1.9%[38.3 µM]	0%	-13	-10	1.5	-2	-11
CN(Cc1ccccc1)C(=O)COC(=O)c1ccc(Cl)cc1N	5.8%	16%	16	-3	2.6	5	-16
CC(NC(=O)c1ccco1)C(=O)O (stereo not given)	0.3%	/	6	-8	-1.1	1	1
CCCCC(=O)Nc1ccc(Cl)cn1	/	7%	7	-5	0.8	14	6
COc1ccc(-c2cc(=O)[nH]c(=S)[nH]2)cc1	0.3%	?	3	-4	2.8	9	2
COc1ccc(Nc2nc(C(=O)N3CCc4ccccc4C3)cs2)cc1	1.1%	-4%	-17	-6	-5.1	-4	-4
COC(=O)c1ccc(Cn2c(C)c(C(=O)NCc3ccco3)sc2=O)o1	0.1%	/	0	1	-3.0	/	-18
CCSc1nnc(NC(=O)Cc2ccc(OC)c(S(=O)(=O)N3CCOCC3)c2)s1	-5.6%	3%	-2	-4	-4.3	3	7
CCn1c(CC(=O)Nc2ccc(Cl)cc2)nnc1SCC(=O)N1CCOCC1	1.3%	6%	-9	7	-0.7	-1	5
CCCCn1c(N)c(N(CCOC)C(=O)COc2c(C)cccc2C)c(=O)[nH]c1=O	-3.0%	/	6	-21	-6.5	8	-1
COc1ccc(OCC(=O)N/N=C/C2CC=CCC2)cc1 (stereo not given)	0.7%	4%	5	-15	2.0	4	-16
Cc1ccc(C)c(C(=O)COc2ccc(C)nc2[N+](=O)[O-])c1	9.7%	-20%	6	3	8.9	1	1
Cc1nc(/C(=N/O)C(N)=O)cs1	1.5%	56µM*	-13	-5	-1.7	1	-22
N/C(=N\OC(=O)c1cc(-c2ccccc2)nc2ccccc12)c1ccncc1	7.6%[38.3 µM]	0%	4	3	8.9	-28	1
COc1ccccc1CN1CC(C(=O)NCCCc2ccc(F)cc2)CCC1=O (stereo not given)	-1.4%	-2%	9	-18	-0.1	-4	0
Cn1c(C(=O)N2COCC2(C)C)cc2c(=O)n3ccccc3nc21	1.9%	6%	-12	2	-1.0	2	-7
Cc1cccc2sc(NC(=O)C3=NN(c4ccccc4)C(=O)CC3)nc12	3.9%	-2%	-5	-1	0.7	-6	/
COCCn1c(=O)[nH]c2cc(C(=O)OC)ccc2c1=O	1.4%	15%	0	21	1.1	-1	11
O=C1CCCc2nc(N3CCCCC3)sc21	0.2%	12%	1	3	0.4	2	4
N#C/C(=C/C=C/c1ccccc1)C(=O)Nc1ccccc1	7.1%[38.3 µM]	19%	-2	-9	-0.4	3	-4
Cc1ccc(CSc2ccc(C(=O)N3CCOCC3)cc2[N+](=O)[O-])cc1	0.5%	2%	14	1	-5.3	-7	6
CCOc1c(Cl)cc(CNCC(C)C)cc1OC	2.3%[38.3 µM]	-5%	4	-11	-4.1	-13	0
CCN(CC(=O)Nc1cc(Cl)ccc1C)C(=O)c1cc([N+](=O)[O-])ccc1N1CCOCC1	1.4%	/	16	-40	-7.4	-3	0
C=CCN(C(=O)Cn1nc(C)n2c(cc3cc(C)ccc32)c1=O)c1ccccc1	0.8%	-2%	9	-23	-1.3	6	/
COc1ccc(/C=N/NC(=O)c2cccnc2)c(C(=O)O)c1OC	0.8%	7%	3	-9	-0.4	9	5
CCOC(=O)c1cc(C#N)c(SC)nc1C	3.3%	17%	1	-10	-2.1	/	10
O=C(/C=C/Nc1ccc(F)cc1)c1ccco1	0.9%	11%	-1	-28	-3.5	-40	-2
Cc1ccc(F)cc1NC(=O)CSc1nnc(CNC(=O)c2ccco2)n1C	1.1%	/	5	-23	-7.5	-2	9
Cc1cc(C)cc(N(CC(=O)NCc2ccco2)C(=O)CCC(=O)Nc2ccccn2)c1	0.6%	3%	-6	19	-2.7	-14	1
CC1(C)Oc2ccc(C(=O)NC3CCCC3)cc2N(CC(=O)NC2CCCCC2)C1=O	0.6%	-1%	7	-19	-3.0	12	-6
COc1ccccc1CC(=O)Nc1ccc(-c2nnc(-c3ccco3)o2)cc1	2.1%	-9%	?	11	2.8	-5	-24
Cc1sc2nc(-c3ccco3)oc(=O)c2c1C	0.6%	-2%	-3	-11	-1.0	-1	4
Cc1cc(O)c(-c2cc(C(=O)Nc3ccc(S(=O)(=O)N4CCOCC4)cc3)[nH]n2)cc1C	2.2%[38.3 µM]	6%	?	20	-1.8	-5	-72*
CCc1ccc(N(C(=O)c2csnn2)C(C(=O)NC2CCCCC2)c2cccnc2)cc1 (stereo not given)	0.8%	-10%	7	1	2.0	4	26
O=C(Cn1nc(-c2ccc(N3CCOCC3)c([N+](=O)[O-])c2)c2ccccc2c1=O)N1CCCCC1	0.3%	11%	0	-7	0.9	14	-8
CC(C)(C)C(=O)CN1CCN(S(=O)(=O)c2ccc(F)cc2)CC1	-1.0%	17%	7	13	-1.6	-3	14
CC(C)(C)c1ccc(S(=O)(=O)N2CCN(CC(=O)NC(=O)NC3CCCCC3)CC2)cc1	3.1%	/	-7	-6	-7.2	-1	5
CN(c1ccccc1)P(=O)(N(C)c1ccccc1)N(C)c1ccccc1	16µM*	15%	7	-21	-4.3	-19	-7
Cn1c(=O)[nH]c(=O)c2c1nc(SCCN1CCOCC1)n2Cc1ccccc1	0.0%	17%	0	-22	-6.7	6	8

Next section
SMILES	PINK1 modulator	Sfp PPTase inh	Six1-Eya2 inh	D2 PAM	D2 ag	TRPV1 PAM	CtBP-E1A blk
O=C(CN1C(=O)NC(Cc2ccccc2)C1=O)Nc1ccc(F)c(F)c1F (stereo not given)	-0.8%	/	4	-4	1.8	-16	1
COc1ccccc1C1C2CCCCC2(O)CCN1CC(=O)Nc1ccccc1 (stereo not given)	4.5%[38.3 µM]	16%	-2	-14	-4.7	-6	4
Cn1c(=O)c2c(ncn2CC(=O)Nc2nnc(Cc3ccccc3)s2)n(C)c1=O	0.4%	4%	1	-1	5.3	4	-3
C=CC[C@@H](CC(=O)N[C@H](CO)Cc1ccccc1)C(=O)NCCOC(=O)[C@@H](CC=C)Cc1ccc(F)cc1	-0.5%	/	8	-4	-5.2	/	-22
CC1(C)C2CCC1(CS(=O)(=O)N1CCC(C(=O)O)CC1)C(=O)C2 (stereo not given)	0.9%	28%	5	6	-5.8	-5	1

Hits appear at their usual frequency; 3.7% or so of the library scored in one or more.
